HSV augment – increases HSV replication in cells | HSV replication augmentation in cells, fold increase | maximum fold increase | hit rate 0.005% among 220,000;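 active = peak rise of 1.5-fold or more in the series; inconclusive = self-fluorescent or not available for retest; tested in PC3 cells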;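 note: first round at 10 µM; read as green reporter fluorescence; hits show the peak of a series up to 25 µM; 1 = signal of infected wells without compound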
INS promoter inh – TRM-6 insulin promoter activity inhibition | AID 1273 | inhibition, % at 2 µM | TRM-6 cells (human fetal islet line), insulin promoter-eGFP reporter, imaging; reporter expression induced with tamoxifen | hit rate 0.9% among 130,000;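 active = inhibition above the mean plus 3 SD, with well images judged a real hit on visual review, cut at about 60% in these data, passing the limit was not always enough; inconclusive = inhibition over the cutoff but images rejected on review; inactive = inhibition not above the cutoff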
PKD1 kinase inh – inhibitors of human PKD1 kinase. hit rate 0.056% among 200,000. PKD1 kinase fluorescence polarization assay. AID 797. Q15139. inhibition, %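 (about 10 µM by stock and volumes)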;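 active = inhibition of 50% or more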;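 note: controls were vehicle for no effect and a reference inhibitor for full effect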
RGS16-Gao HTS – regulators of human RGS16-Galphao interaction. AID 1441. O15492+P09471. binding response (% of control), % at 10 µM. hit rate 0.38% among 220,000. bead-based flow cytometry RGS16-Galphao binding, fluorescence; actives lie on both sides;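 active = below 25% or above 175%, edge rows of some plates excepted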;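 note: Galphao activated by GDP with aluminum fluoride before binding; 100% = wells without compound and 0% = beads without RGS; some results beyond the cut were filed as inactive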
Target sequence (O15492 whole entry, looked up): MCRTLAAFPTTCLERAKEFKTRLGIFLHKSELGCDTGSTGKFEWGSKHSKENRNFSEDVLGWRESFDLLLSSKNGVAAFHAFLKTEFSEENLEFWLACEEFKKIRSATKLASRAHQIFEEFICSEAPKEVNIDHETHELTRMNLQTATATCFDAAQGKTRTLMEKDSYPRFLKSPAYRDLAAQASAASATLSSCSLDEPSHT
Target sequence (P09471 whole entry, looked up): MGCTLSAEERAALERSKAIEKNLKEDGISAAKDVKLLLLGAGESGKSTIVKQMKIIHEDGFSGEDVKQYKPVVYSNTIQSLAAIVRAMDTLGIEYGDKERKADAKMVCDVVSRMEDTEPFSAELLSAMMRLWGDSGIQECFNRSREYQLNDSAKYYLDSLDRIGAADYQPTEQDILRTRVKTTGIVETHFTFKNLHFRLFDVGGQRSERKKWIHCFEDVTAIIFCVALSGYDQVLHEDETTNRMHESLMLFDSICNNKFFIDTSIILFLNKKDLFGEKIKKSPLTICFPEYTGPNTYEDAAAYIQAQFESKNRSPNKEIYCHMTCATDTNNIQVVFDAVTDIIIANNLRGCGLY
GALR2 ag – activates the human galanin receptor 2. GALR2-expressing cells, agonist activation read-out. AID 803. O43603. activation, %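 (tested at 5 µM)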. hit rate 0.48% among 140,000;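 active = above mean plus 3 SD of all compounds, about 5% in these data, not always enough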;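 note: 0% = vehicle buffer wells and 100% = reference agonist at full effect; tested in CHO reporter cells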
Target sequence (O43603 whole entry, looked up): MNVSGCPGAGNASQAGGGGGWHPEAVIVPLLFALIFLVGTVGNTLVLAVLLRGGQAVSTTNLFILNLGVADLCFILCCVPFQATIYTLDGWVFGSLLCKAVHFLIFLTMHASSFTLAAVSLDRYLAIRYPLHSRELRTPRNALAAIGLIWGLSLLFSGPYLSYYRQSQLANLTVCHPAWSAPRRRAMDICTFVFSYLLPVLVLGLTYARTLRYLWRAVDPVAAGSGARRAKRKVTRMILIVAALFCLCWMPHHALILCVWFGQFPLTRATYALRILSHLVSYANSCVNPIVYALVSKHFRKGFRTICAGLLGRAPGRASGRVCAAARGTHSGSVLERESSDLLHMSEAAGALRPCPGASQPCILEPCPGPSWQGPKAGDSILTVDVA
INS promoter inh cell count – also measured in INS promoter inh; calls as there; normalized cell count, %; measured here: cell count, toxicity; reference of the scale not given here;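 cells exposed to compound for 48 h; stained nuclei by imaging scaled within each plate; lower means fewer cells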
HSV augment primary fold – second read-out of HSV augment, no call of its own (marks repeat the call); fold increase; compound at 10 µM; measured here: primary screen fold increase 10 uM; tested in PC3 cells;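 GFP signal in the first replicate; 1 = infected wells without compound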
* hit, by the source's call; i = inactive; ? = inconclusive; . = no result given.

#	structure	HSV augment	HSV augment primary fold	INS promoter inh	INS promoter inh cell count
1	O=C(O)CCS(=O)(=O)c1cc(Br)cc2c1N(C(=O)C1CC1)CC2	i	0.96	.	.
2	Cn1c2c(c3ccccc31)CC/C2=N\O	.	.	3.7	121.3
3	Cc1cc(=O)n2[nH]c(-c3ccccc3)cc2n1	.	.	48.6	74.3
4	O=C(c1ccc(=O)n(Cc2ccc(Cl)c(Cl)c2)c1)N1CCOCC1	i	0.78	-32.1	101.8
5	O=C(CSc1ncccc1C(=O)O)NCc1ccc(F)cc1	i	1.04	.	.
6	CC1(C)Cc2ccccc2C(NNC(=O)c2ccccc2)=N1	i	0.99	-9.1	158.2
7	Cc1cc(NS(=O)(=O)Cc2ccccc2)no1	i	0.94	53.9	113.2
8	Cc1sc2nc(SCC(N)=O)n(C)c(=O)c2c1C	i	0.95	35.1	108.0
9	NCCCS(=O)(=O)O	i	0.97	23.8	74.4
10	COc1ccc(C(=O)Nc2cccc(C(=O)NCc3ccccc3)c2)cc1	i	0.95	.	.

#	PKD1 kinase inh	RGS16-Gao HTS	GALR2 ag
1	10.4	97.2	.
2	11.3	106.9	-2.0
3	-5.7	105.5	-2.4
4	-10.6	103.8	-3.6
5	-0.6	105.5	0.5
6	-5.9	107.1	.
7	-5.3	95.8	-1.4
8	6.0	102.7	-1.2
9	7.8	104.0	-0.3
10	-1.8	101.0	.

(further entries)
#	structure	HSV augment	HSV augment primary fold	INS promoter inh	INS promoter inh cell count
11	COC(=O)Cn1cc(C(=O)C(C)(C)C)c2ccccc21	i	1.02	.	.
12	Cc1ccc(SCCNC(=S)Nc2ccccc2)cc1	i	0.93	2.7	94.6
13	CCOCC(=O)Nc1ccc(S(=O)(=O)N2CCOCC2)cc1	i	0.98	61.1	76.8
14	CCSC1(SCC)N=C(N)C2(C#N)C(c3ccccc3)NC(C)=CC12C#N (centres undefined)	i	0.917	.	.
15	O=C(CCC1=NS(=O)(=O)c2ccccc2N1)NC1CCCCCCC1	i	0.95	30.0	121.1
16	CCOc1ccc(CCNS(=O)(=O)c2cccc3nsnc23)cc1OCC	i	0.95	-35.0	128.8
17	O=C(CNC(=O)c1ccccn1)N/N=C/c1ccccc1	i	0.9	41.7	115.2
18	CCN1C(=O)c2ccc(C(=O)Nc3ncc(C)s3)cc2C1=O	i	0.9	60.0	79.2
19	CCOC(=O)N1CCN(Cc2nc(-c3cccs3)no2)CC1	i	1.05	.	.
20	Cc1cccc(NC(=S)NNC(=O)c2ccccc2Br)c1	i	0.96	3.1	87.6

#	PKD1 kinase inh	RGS16-Gao HTS	GALR2 ag
11	-2.6	102.1	.
12	1.8	99.7	-1.7
13	-14.4	97.3	0.3
14	-10.7	101.0	-2.1
15	-12.7	101.3	-0.9
16	-3.1	101.7	-2.9
17	-11.5	91.6	-2.0
18	-0.8	96.8	.
19	1.8	101.4	.
20	-0.3	96.2	0.6

Molecules shown so far containing four or more nitrogen atoms, in the order listed:
#	structure	HSV augment	HSV augment primary fold	INS promoter inh	INS promoter inh cell count
14	CCSC1(SCC)N=C(N)C2(C#N)C(c3ccccc3)NC(C)=CC12C#N (centres undefined)	i	0.917	.	.
17	O=C(CNC(=O)c1ccccn1)N/N=C/c1ccccc1	i	0.9	41.7	115.2
19	CCOC(=O)N1CCN(Cc2nc(-c3cccs3)no2)CC1	i	1.05	.	.

#	PKD1 kinase inh	RGS16-Gao HTS	GALR2 ag
14	-10.7	101.0	-2.1
17	-11.5	91.6	-2.0
19	1.8	101.4	.

Other structures.
#	structure	HSV augment	HSV augment primary fold	INS promoter inh	INS promoter inh cell count
21	O=C(O)c1cc(O)ccc1NC(=O)c1cccc2ccccc12	i	1.07	.	.
22	Nc1cc2nc3ccccc3oc-2cc1=O	?	.	.	.
23	Cc1cc(CNC(=O)CC2C(=O)NCCN2Cc2ccccc2C(F)(F)F)on1 (centres undefined)	i	1.2	.	.
24	Cc1ccc(NNC(=O)c2c(F)cccc2Cl)cc1Cl	i	0.98	.	.
25	O=C(Nc1cccc(S(=O)(=O)N2CCCCCC2)c1)c1ccc2c(c1)OCO2	i	0.93	3.3	107.0
26	Cc1cc(C)cc(NC(=S)NCCCO)c1	i	0.98	-53.3	112.8
27	CCOC(=O)c1cccc(NC(=O)c2cccnc2)c1	i	0.94	-9.1	110.9
28	O=c1[nH]c2ccccc2n2c(-c3ccccc3)nnc12	i	1.05	33.3	113.3
29	COc1ccccc1NC(=O)C(=N\O)/C(C)=N/O	i	1.02	-26.7	128.9
30	C=CCn1c(=NC(=O)c2ccc(S(=O)(=O)N3CCc4ccccc4C3)cc2)sc2cc(S(N)(=O)=O)ccc21	i	0.89	36.7	93.1

#	PKD1 kinase inh	RGS16-Gao HTS	GALR2 ag
21	.	102.1	.
22	.	93.4	.
23	6.5	86.8	.
24	.	98.0	.
25	-6.0	103.5	-1.2
26	-6.1	102.1	-1.1
27	-0.3	101.9	-1.8
28	0.7	44.0	-2.2
29	-2.5	105.2	-0.9
30	-6.2	99.7	-0.5

More entries
#	structure	HSV augment	HSV augment primary fold	INS promoter inh	INS promoter inh cell count
31	Cc1c(NC(=O)C(C)N2CC(C)OC(C)C2)c(=O)n(-c2ccccc2)n1C (centres undefined)	i	0.85	.	.
32	CC1=CC(=NOC(=O)/C=C/c2ccccc2)C=C(C)C1=O	?	.	-22.6	94.1
33	Fc1cccc(-c2cc3nc(-c4ccccc4)cc(N4CCC5(CC4)OCCO5)n3n2)c1	i	0.87	-111.1	99.8
34	Cc1ccc(C2=NN(Cc3nnc(-c4ccccc4)o3)C(=O)SC2)cc1	i	0.87	-10.0	92.5
35	O=C(NC(=S)N1CCN(Cc2ccccc2)CC1)c1ccccc1	i	0.88	17.2	97.7
36	c1ccc2oc(Cc3ccc(Cc4nc5ccccc5o4)cc3)nc2c1	i	0.91	35.3	91.7
37	O=[N+]([O-])c1ccc(OCC(O)CNC2CCCC2)cc1 (centres undefined)	i	0.97	.	.
38	CC(=O)c1ccc(NC(=O)C2(c3ccccc3)CC2(Cl)Cl)cc1 (centres undefined)	i	0.95	.	.
39	CC(C)Cn1c(CN2C(=O)c3ccccc3C2=O)nc2ccccc2c1=O	i	0.96	9.1	87.2
40	COc1ccc(/C=C/C(=O)OCC(=O)c2ccc3c(c2)NC(=O)CO3)cc1	i	0.62	.	.

#	PKD1 kinase inh	RGS16-Gao HTS	GALR2 ag
31	-10.8	100.8	-2.4
32	0.8	96.0	-1.8
33	1.7	104.2	-0.5
34	-13.5	82.9	-0.6
35	-10.3	104.7	0.5
36	-3.0	115.5	-1.0
37	.	107.1	.
38	.	106.2	.
39	-7.9	97.7	-1.8
40	.	96.5	.

Individual results from the list.
Entry of CCOC(=O)N1CCN(Cc2nc(-c3cccs3)no2)CC1 in PKD1 kinase inh: 1.8
Entry of O=[N+]([O-])c1ccc(OCC(O)CNC2CCCC2)cc1 (centres undefined) in RGS16-Gao HTS: 107.1

The listing continues:
#	structure	HSV augment	HSV augment primary fold	INS promoter inh	INS promoter inh cell count
41	CCN(CC)CCn1c(=S)[nH]c2ccc(Cl)cc2c1=O	.	.	.	.
42	O=C(CSc1nnc(CCc2ccccc2)n1-c1ccc(Cl)cc1)c1ccccc1	i	1.1	.	.
43	O=C(CSc1ccc(-c2nc3ccccc3[nH]2)cn1)Nc1ccc2c(c1)OCCO2	i	0.97	-3.6	130.8
44	COc1ccc(OC)c(/C=C2\SC(=S)N(N3CCOCC3)C2=O)c1	i	0.93	.	.
45	CN1CCN(/C=N/c2c(C#N)cnn2Cc2ccccc2)CC1	i	1.1	.	.
46	NC(=O)SCC(=O)Nc1ccc(Cl)c(Cl)c1	i	0.81	.	.
47	S=c1[nH]nc(-c2ccccc2)n1/N=C/C=C/c1ccco1	i	1.26	.	.
48	COc1ccc(C(=O)N/N=C/c2ccc(OC)c(OS(=O)(=O)c3ccccc3)c2)cc1	i	0.8	5.1	114.7
49	Cc1onc(-c2c(F)cccc2Cl)c1C(=O)ONC(=O)c1ccco1	i	1.16	.	.
50	CCn1cc(C(=O)O)c(=O)c2cnc(N3CCN(C(=S)NC(=O)c4ccc(Br)cc4)CC3)nc21	i	1.44	.	.

#	PKD1 kinase inh	RGS16-Gao HTS	GALR2 ag
41	-9.6	103.7	-2.9
42	6.1	102.0	2.8
43	6.8	102.8	2.3
44	.	99.0	.
45	-9.5	104.9	-0.6
46	2.9	107.5	1.2
47	5.0	-0.4*	0.2
48	4.1	96.9	-1.5
49	.	109.6	.
50	.	94.2	.

Next part:
#	structure	HSV augment	HSV augment primary fold	INS promoter inh	INS promoter inh cell count
51	O=[N+]([O-])c1cc(Br)c(O)c(/C=N/Nc2nc3ccccc3s2)c1	i	0.79	66.7	78.9
52	CCCCC(=O)Nc1ccc(C(=O)N(CC)c2ccccc2C)cc1	i	0.88	15.8	138.8
53	Cc1ccc(C2C=C(c3ccccc3)Nc3nc(N4C(=O)CCC4=O)nn32)cc1 (centres undefined)	i	1.23	17.6	58.4
54	C=CCNC(=O)c1ccc(CNS(=O)(=O)c2ccc(NC(C)=O)cc2)cc1	i	0.73	-35.1	118.3
55	O=C(NC12CC3CC(CC(C3)C1)C2)N1CCC(n2nnc3ccccc32)CC1	i	0.88	28.1	129.7
56	CCOc1ccc(C(=O)Nc2cnn(Cc3ccc(Cl)c(Cl)c3)c2)cc1	i	1.18	2.0	89.0
57	CN(C)S(=O)(=O)c1cccc(C(=O)Nc2ccccc2[N+](=O)[O-])c1	i	0.74	52.9	67.3
58	O=C(NN1C(=O)/C(=C/C=C/c2ccco2)SC1=S)c1ccncc1	i	1.19	.	.
59	COC(=O)CSc1nnc(NC(=O)/C=C\c2ccc3c(c2)OCO3)s1	i	0.98	17.9	108.1
60	CC(C)n1nc(C(=O)OCC(=O)N2CC(=O)Nc3ccccc32)c2ccccc2c1=O	i	0.97	.	.

#	PKD1 kinase inh	RGS16-Gao HTS	GALR2 ag
51	-8.4	108.7	.
52	-6.1	98.1	.
53	5.8	101.2	.
54	-0.5	99.9	-1.5
55	-11.0	105.5	0.9
56	-10.2	101.9	-2.7
57	-4.9	131.8	-0.8
58	.	96.9	.
59	-0.2	87.1	1.0
60	-2.7	95.1	.

The list goes on.
#	structure	HSV augment	HSV augment primary fold	INS promoter inh	INS promoter inh cell count
61	Cn1c(=O)c2c(nc(CN3CCN(c4ccccc4)CC3)n2Cc2ccccc2Cl)n(C)c1=O	i	0.56	.	.
62	C=C(C)C1CC=C(C)/C(=N/NC(=O)c2ccc(NC(=O)CC)cc2)C1 (centres undefined)	i	0.89	-35.1	90.7
63	Cc1ccc(-n2nc3c(c2NC(=O)c2ccc4c(c2)OCO4)CSC3)cc1	i	0.98	32.0	149.5
64	COC(=O)c1c(NC(=O)/C=C/C(=O)O)sc(C)c1-c1ccc(C(C)C)cc1	i	0.84	.	.
65	COc1cccc(NC(=O)COC(=O)CNS(=O)(=O)c2c(F)cccc2F)c1	i	1.16	.	.
66	COc1ccc(/C=c2\sc3nc(-c4ccccc4)c(-c4ccccc4)n3c2=O)cc1OC	.	.	-18.2	70.6
67	CC(=O)c1ccc(N2CC(C)(C)C2=O)cc1	.	.	38.5	114.6
68	CN1CCN(C(=O)Nc2ccccc2CC[N+](=O)[O-])CC1	i	0.98	9.1	170.5
69	COc1ccccc1Nc1nc(N)nc(CN2CCC(Cc3ccccc3)CC2)n1	i	0.74	0.0	157.4
70	O=C(NC1CCCCC1)C1CCCN(S(=O)(=O)c2cccs2)C1 (centres undefined)	i	0.87	27.3	114.8

#	PKD1 kinase inh	RGS16-Gao HTS	GALR2 ag
61	0.3	105.5	-0.8
62	4.2	101.4	-0.4
63	-8.9	101.9	-1.3
64	1.5	105.4	.
65	-8.0	68.4	0.2
66	-8.4	107.0	-1.9
67	-5.1	179.7	.
68	-3.4	91.6	.
69	4.2	-460.7	-1.4
70	-25.0	113.5	-0.6

The results go on:
#	structure	HSV augment	HSV augment primary fold	INS promoter inh	INS promoter inh cell count
71	Cc1ccc(Nc2nc(N)nc(CCl)n2)cc1	i	0.54	.	.
72	CC(C)n1c(O)c(N=Nc2ccc(Cl)nn2)c2ccccc21	i	1.13	-93.5	110.3
73	Cc1ccc(N2NC3(CCN(C(N)=O)CC3)NC2=O)cc1	i	1.47	.	.
74	COc1ccc(CCn2c(C)cc3c(c2=O)C(c2ccncc2)C(C#N)=C(N)O3)cc1OC (centres undefined)	i	0.96	8.3	105.0
75	CC(=O)c1sc(NC(=O)c2ccc(C)cc2)nc1C	i	0.85	43.6	99.0
76	CC(C)CCNC(=O)C(C)N(Cc1ccc(F)cc1)C(=O)c1ccc(CN2CCOCC2)o1 (centres undefined)	i	0.86	-89.7	157.8

#	PKD1 kinase inh	RGS16-Gao HTS	GALR2 ag
71	.	98.7	.
72	-11.5	106.3	-2.0
73	-2.5	99.4	.
74	-5.2	100.0	-1.6
75	-10.8	107.0	-1.0
76	-3.3	103.5	.

Source: PubChem
